# Bioassay records (PubChem BioAssay)
# Yeast UUG start: yeast start codon fidelity modulation. S. cerevisiae UUG-firefly luciferase reporter, luminescence/redox ratio. activity score, % at 18.7 µM. actives 0.13% (n = 350,000). AID 602363;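 active = replicate mean at a twofold rise or more, about +100% in these data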;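 also: firefly luciferase made from a UUG start codon reports start codon fidelity; reporter light over untreated wells divided by growth signal over untreated wells; some hits fall short of that in this replicate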
# HIV Env fusion: blocks HIV Env-driven cell-cell fusion | actives 1.1% (n = 360,000) | inhibition, % at 12.3 µM | HeLa-JRFL Env/CEM21 cell fusion, luciferase;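 active = mean replicate inhibition score of at least 50 and every replicate individually at or above 50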;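 also: 0% = plate neutral controls and 100% = maraviroc near 300 nM; one replicate is shown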
# eIF4H inh: inhibitors of RNA binding by human eIF4H. eIF4H fluorescence polarization binding assay. AID 2012. actives 0.94% (n = 290,000). inhibition, % at 35 µM. Q15056;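 active = 50% or more with normal probe brightness, or confirmed in later tests; about a fifth of its hits are not listed in these tables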;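 also: calls also rest on retests at 20 µM and on dose response follow-up; 0% = protein and probe with vehicle and 100% = probe without protein; strong numbers were not always called active; many hits fall short of the cut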
# Rce1 inhib: yeast Ras-converting enzyme inhibition | yeast membranes, quenched prenylated peptide cleavage fluorescence | calls only | actives 0.27% (n = 290,000) | Q03530;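 active = fall in fluorescence gain of 50% or more versus controls, with final raw signal at or below 3038400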;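 also: plate controls were neutral control wells for no effect and wells lacking membranes for full effect; tested at 10 µM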
# Target sequence (Q03530 whole entry, looked up): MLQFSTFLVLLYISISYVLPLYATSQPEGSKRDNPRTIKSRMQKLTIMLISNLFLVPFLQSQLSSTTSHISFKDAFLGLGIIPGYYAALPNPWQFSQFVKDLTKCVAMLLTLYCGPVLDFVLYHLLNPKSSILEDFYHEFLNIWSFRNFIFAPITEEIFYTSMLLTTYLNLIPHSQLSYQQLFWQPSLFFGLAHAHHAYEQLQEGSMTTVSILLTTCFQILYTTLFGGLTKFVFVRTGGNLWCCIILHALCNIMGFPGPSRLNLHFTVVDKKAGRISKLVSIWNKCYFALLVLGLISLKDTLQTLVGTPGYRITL
# CSC inhib: cancer stem cell inhibition. cancer stem cell-like cells viability, luminescence. inhibition, % at 7.5 µM. actives 1.1% (n = 300,000);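 active = mean at 75% or more and at least half the replicates too; tested in HMLE shEcad cells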;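 also: 0% = median of negative and 100% = median of positive control wells; the first replicate is given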
# MT1-MMP act inh: inhibitors of human MT1-MMP activation | GFP/RFP ratio change, % at 20 µM | HT1080 RFP-PRO-GFP cells, GFP/RFP ratio fluorescence, overnight; percent of plate control window, DMSO zero | actives 0.061% (n = 360,000);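 active = GFP/RFP ratio change of at least 30% with cell ATP level not reduced by more than half and red fluorescence within 50% of control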; also: strong numbers were not always called active
#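 Material – HT1080 RFP-PRO-GFP cells · Control set – DMSO wells and RFP-L50D-GFP cells · Incubation – overnight cell settling, then overnight compound exposure, 37 °C, 5% CO2 · Compound dosing – single-point 20 µM compound, 1% DMSO · Read-out – GFP/RFP fluorescence ratio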
# PABP FP inh: PABP-poly(A) binding inhibition; actives 1% (n = 290,000); AID 2014; PABP-poly(A) RNA binding, fluorescence polarization; inhibition, % at 35 µM;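 active = 50% or more with normal probe brightness, or confirmed in later tests; about a fifth of its hits are not listed in these tables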;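 also: calls also rest on retests at 20 µM and on dose response follow-up; controls were probe without protein and protein plus probe with vehicle; some compounds called inactive have numbers as strong as hits; many hits fall short of the cut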
# MT1-MMP act inh RFP: also measured in MT1-MMP act inh; calls as there; RFP signal change, %; measured here: RFP expression control read;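 0 = vehicle wells; hits needed this value within 50% of zero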
# Starred values were filed as active, the others as inactive; i = inactive; nt = not tested or not shown.
SMILES,Yeast UUG start,HIV Env fusion,eIF4H inh,Rce1 inhib,CSC inhib,MT1-MMP act inh,MT1-MMP act inh RFP,PABP FP inh
COc1ccc(Nc2nc(CC(C)=O)ns2)cc1OC,-12,nt,5,i,-6,-1,3,2
Cc1cc2oc3ccc(NCCCN4CCOCC4)cc3c(=O)c2cc1C,-17,-36,nt,i,-5,-8,3,nt
CC(C)NC(=O)CN1CCN(C(=O)CCl)CC1,nt,5,-4,i,nt,4,1,-9
Cc1cc(C)n(CC(O)Cn2c3ccccc3c3ccccc32)n1 (stereo not given),-11,nt,0,i,15,1,-6,10
CSc1nc(-c2ccccc2)[nH]c(=S)c1C(C)=O,-19,nt,0,i,nt,-5,1,-2
CC12CCC(C/C1=N\OC(=O)c1c(F)cccc1F)C2(C)C (stereo not given),-13,7,-7,i,-2,2,3,3
CCOC(=O)C1C(c2ccc(O)c(OCC)c2)NC(=S)NC1(O)C(F)(F)F (stereo not given),-24,-75,6,i,-3,0,-2,12
Cc1cc(C(=O)Nc2ccccc2[N+](=O)[O-])cs1,-9,-60,-3,i,0,-1,4,7
O=C(NCCc1ccccc1)c1ccccc1Cl,-58,17,-6,i,1,-2,-2,4
COc1ccc(CN(C#N)c2nc(SC)nc(N(C)C)n2)cc1,nt,nt,1,i,-2,-3,-5,-5
Cc1cc(NC(=O)c2cc(S(=O)(=O)N3CCCCC3)ccc2C)n(-c2ccccn2)n1,-11,nt,-2,nt,17,-3,-4,-10
CCC(c1nnc(SCC(=O)N(C)c2ccccc2)n1Cc1ccccc1)N(C)C (stereo not given),4,0,2,i,-3,-2,2,-8
CCOC(=O)N1CCC(N2Cc3cccc(C(=O)N4CCN(C5CCCCC5)CC4)c3C2=O)CC1,-5,nt,-13,i,3,3,3,18
COC(=O)c1ccc(CN2CCc3ccc(NC(=O)c4ccncc4)cc3C2)cc1,-10,24,-8,i,11,4,-13,3
Cc1n[nH]c(=S)n(/N=C/c2ccccn2)c1=O,-16,nt,6,i,-10,-1,5,1
Cc1ccccc1OCC(=O)NCCC1=CCCCC1,nt,18,0,i,-12,0,4,11
NCCCC[C@H]1CN=C(N)N1CCC12CC3CC(CC(C3)C1)C2,-8,13,0,i,-19,6,1,18
Cc1ccc(N(CC(O)CN2C(=O)NC(C)(C)C2=O)S(=O)(=O)c2ccc(C)cc2)cc1 (stereo not given),6,4,0,i,2,-3,-1,-5
Cc1ccc(/C=N/NC(=O)C(C)Oc2cccc3ccccc23)o1 (stereo not given),3,4,16,i,-9,0,2,7
CSc1nc2ccc(NS(=O)(=O)c3ccc(Br)s3)cc2s1,nt,2,-12,i,25,1,0,8

# The list goes on, overlapping the part above by 6 compounds.
SMILES,Yeast UUG start,HIV Env fusion,eIF4H inh,Rce1 inhib,CSC inhib,MT1-MMP act inh,MT1-MMP act inh RFP,PABP FP inh
Cc1n[nH]c(=S)n(/N=C/c2ccccn2)c1=O,-16,nt,6,i,-10,-1,5,1
Cc1ccccc1OCC(=O)NCCC1=CCCCC1,nt,18,0,i,-12,0,4,11
NCCCC[C@H]1CN=C(N)N1CCC12CC3CC(CC(C3)C1)C2,-8,13,0,i,-19,6,1,18
Cc1ccc(N(CC(O)CN2C(=O)NC(C)(C)C2=O)S(=O)(=O)c2ccc(C)cc2)cc1 (stereo not given),6,4,0,i,2,-3,-1,-5
Cc1ccc(/C=N/NC(=O)C(C)Oc2cccc3ccccc23)o1 (stereo not given),3,4,16,i,-9,0,2,7
CSc1nc2ccc(NS(=O)(=O)c3ccc(Br)s3)cc2s1,nt,2,-12,i,25,1,0,8
CCC/C(O)=C1\C(=O)CC(C)(C)CC1=Nc1ccccc1O,nt,-2,6,i,9,0,0,4
Cc1ccc(NC(=O)CSc2n[nH]c(=O)n2C2CC2)cc1S(=O)(=O)N1CCOCC1,nt,10,7,i,-4,6,4,6
Cc1ccc(OCC(=O)NNC(=S)NC(=O)C2CCCCC2)c(C)c1,-23,nt,17,i,8,7,8,1
Cc1cc2nnc(SCC(=O)N3CCCCCC3)n2c(N)n1,-15,-3,-6,i,4,2,7,2
O=C(OCCN1C(=O)c2ccccc2C1=O)Oc1ccccc1,-11,1,-1,i,-7,0,4,11
CC(=O)NCC(=O)N(Cc1ccco1)C1(C(=O)NC2CCCC2)CCCCC1,-33,23,9,i,-8,1,-1,0
Cc1[nH]n(-c2ccc(Br)cc2)c(=O)c1C=Nc1ccc(S(=O)(=O)Nc2nccs2)cc1,-20,0,21,i,28,3,-1,-3
Cc1ccc(S(=O)(=O)N2CCOCC2)cc1C(=O)Nc1ccccc1F,-3,-21,-11,i,-9,2,2,-10
COC(=O)c1sc2[nH]c(=S)n(N)c(=O)c2c1C,nt,nt,-3,nt,nt,2,1,-5
COc1ccc(-n2c(Cc3cc(=O)[nH]c(=O)[nH]3)nnc2SCC(=O)Nc2cc(C(F)(F)F)ccc2Cl)cc1,-14,-1,0,i,0,0,2,-11
CCOC(=O)c1ccc(N=c2sc(C(=O)OC)cc(=O)n2Cc2ccco2)cc1,-22,-38,-7,i,92*,-8,-22,-12
COc1cccc(CN2CCC2(C)C(=O)Nc2ccc3c(c2)CCN3C(C)=O)c1F (stereo not given),-3,1,nt,nt,nt,-1,5,nt
COc1ccc(-c2nn(-c3ccccc3)cc2/C=N/Nc2ccc(Cl)c(C(=O)O)c2)cc1OC,nt,-13,-8,i,5,7,5,10
CCc1noc(C)c1C(=O)Nc1nc(-c2ccc(NC(C)=O)cc2)cs1,11,17,nt,i,-4,7,-4,nt
COc1ccc(N(C(=O)Cn2nnc3ccccc32)C(C(=O)NCc2ccco2)c2ccc(C)o2)cc1 (stereo not given),-3,nt,10,i,-5,5,8,-3
Cn1c(C(=O)NCc2cccs2)cc2c(=O)n(C)c3ccccc3c21,-11,-36,17,i,-11,5,-3,13
CCCS(=O)(=O)N1CCC(C(=O)NCCCN(CC)c2cccc(C)c2)CC1,nt,nt,-4,nt,-7,4,1,-5
CCOc1ccc(Cc2nnc(N)s2)cc1OCC,-9,nt,-2,i,-10,0,1,-6
COc1ccc(-n2cnnc2SCc2ncc(-c3ccccc3)o2)cc1,-16,-62,2,i,-13,0,3,-4
COc1ccccc1NC(=O)N1CCC(c2nnc(SCC(N)=O)n2C)CC1,-10,-4,-9,nt,-13,0,3,-2

# The closing 4 compounds of the part before come first, to join the parts:
SMILES,Yeast UUG start,HIV Env fusion,eIF4H inh,Rce1 inhib,CSC inhib,MT1-MMP act inh,MT1-MMP act inh RFP,PABP FP inh
CCCS(=O)(=O)N1CCC(C(=O)NCCCN(CC)c2cccc(C)c2)CC1,nt,nt,-4,nt,-7,4,1,-5
CCOc1ccc(Cc2nnc(N)s2)cc1OCC,-9,nt,-2,i,-10,0,1,-6
COc1ccc(-n2cnnc2SCc2ncc(-c3ccccc3)o2)cc1,-16,-62,2,i,-13,0,3,-4
COc1ccccc1NC(=O)N1CCC(c2nnc(SCC(N)=O)n2C)CC1,-10,-4,-9,nt,-13,0,3,-2
O=C(Cc1ccc([N+](=O)[O-])cc1)Nc1ccc2c(c1)CCC2,-6,-12,0,i,1,7,-1,4
O=C(CCn1c(=O)oc2ccccc21)NCCCN1CCOCC1,-27,-21,1,i,1,-2,2,7
Cc1ccnc(NC(=O)CCC(=O)N(Cc2ccco2)C(C(=O)NC(C)C)c2ccc(F)cc2)c1 (stereo not given),-18,29,-12,i,4,2,5,21
CCOc1ccc(C2/C(=C(\O)c3ccc4c(c3)OCCO4)C(=O)C(=O)N2Cc2cccnc2)cc1OCC (stereo not given),nt,5,0,i,-14,-2,1,5
COc1ccccc1N1CC(C(=O)Nc2ccc(S(=O)(=O)N3CCOCC3)cc2)CC1=O (stereo not given),-9,-36,36,i,-7,4,10,26
CC(=O)NC(c1ccccc1)c1nc(-c2csc3ccccc23)cs1 (stereo not given),-15,-4,nt,nt,nt,-3,-4,nt
Cc1onc(-c2ccccc2)c1C(=O)Nc1ccc(Cl)c(S(=O)(=O)N2CCOCC2)c1,-3,11,nt,nt,nt,-2,-2,nt
CCOc1ccccc1NC(=O)COC(=O)CN1C(=O)NC(C)(C)C1=O,-12,0,nt,nt,8,0,3,nt
Cc1c(Cl)ccc2c(C(=O)NCCN3CCCCC3)cc(-c3ccccn3)nc12,nt,13,10,i,19,-3,-1,1
COc1ccc(-c2c(NC(=O)c3ccco3)oc3c(C)cccc3c2=O)cc1,-5,8,-14,i,-11,2,3,11
COc1cccc(CNC(=O)Cn2c(=O)n(CCC(=O)N3CCCCC3)c(=O)c3sccc32)c1,-6,11,-13,i,-2,1,0,-5
CN(C)C=NC(=O)c1ccc(N2CCN(c3ncc(C(F)(F)F)cc3Cl)CC2)cc1,-15,nt,-2,i,-10,10,5,0
Cc1ccc(NC(=O)c2nn(C34CC5CC(CC(C5)C3)C4)cc2[N+](=O)[O-])cc1,-1,26,-2,i,4,-9,-10,1
O=S(=O)(c1ccc(Cl)cc1)N1CCN(c2nc(-c3cccs3)nc3ccccc23)CC1,-7,-3,4,i,nt,-12,-2,-7
CC(=O)c1ccc(N2CCN(S(=O)(=O)c3ccccc3)CC2)c(F)c1,nt,9,8,i,-16,0,-3,4
C=CCNC(=O)CNS(=O)(=O)c1ccc(F)cc1,-18,nt,6,i,-5,-1,2,1
O=C(O)CSc1ccccc1C(=O)O,-14,2,1,i,-17,3,3,2
COc1ccc(OC)c(NC(=O)COC(=O)CCS(=O)(=O)c2ccc(Cl)cc2)c1,2,-8,nt,nt,4,-4,-2,nt
Cc1ncsc1C(=O)O,nt,-7,5,i,-9,-11,-1,-1
CCc1cc2ccc(C)cc2nc1SCC(=O)Nc1cc(OC)c(OC)cc1C(=O)O,nt,-14,14,i,-6,-2,2,-4
Fc1ccccc1N1CCN(CC2CCCCC2)CC1,3,3,4,i,-4,3,5,-2
COc1cc2ccccc2cc1C(=O)Nc1cc(C)ccn1,0,-28,-14,i,3,-2,-1,-4
COc1ccc(S(=O)(=O)N2CCN(c3ncccn3)CC2)cc1[N+](=O)[O-],0,-2,-6,i,15,-2,-2,4
COc1cc(CCC(=O)Oc2ccc(C(C)=O)cc2)cc(OC)c1OC,2,nt,2,i,-15,4,8,-3

# 2 compounds from above, limited to CSC inhib and PABP FP inh:
structure | CSC inhib | PABP FP inh
Fc1ccccc1N1CCN(CC2CCCCC2)CC1 | -4 | -2
COc1cc2ccccc2cc1C(=O)Nc1cc(C)ccn1 | 3 | -4

# These rows are one share of the data, so the mix of outcomes need not match the whole.
